KCNQ2 enhance: potentiators of rat KCNQ2 potassium channel | O88943 | CHO-K1 KCNQ2, FluxOR thallium flux fluorescence; stronger effect = higher value | B-score at 10 µM | hit rate 0.54% among 310,000 | AID 2239;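 active = fluorescence ratio B-score at least 3 SD of library B-scores, with initial fluorescence B-score within 3 SD, cut at about 5.3 in these data; same plate scores as AID 2156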;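 also: B-score of peak minus minimum over baseline fluorescence ratio after K+ and Tl+ stimulus; positive B-score means potentiation of KCNQ2 with more thallium influx and brighter signal; only the inactives scoring about 0 or higher are listed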
Target sequence (O88943 whole entry, looked up): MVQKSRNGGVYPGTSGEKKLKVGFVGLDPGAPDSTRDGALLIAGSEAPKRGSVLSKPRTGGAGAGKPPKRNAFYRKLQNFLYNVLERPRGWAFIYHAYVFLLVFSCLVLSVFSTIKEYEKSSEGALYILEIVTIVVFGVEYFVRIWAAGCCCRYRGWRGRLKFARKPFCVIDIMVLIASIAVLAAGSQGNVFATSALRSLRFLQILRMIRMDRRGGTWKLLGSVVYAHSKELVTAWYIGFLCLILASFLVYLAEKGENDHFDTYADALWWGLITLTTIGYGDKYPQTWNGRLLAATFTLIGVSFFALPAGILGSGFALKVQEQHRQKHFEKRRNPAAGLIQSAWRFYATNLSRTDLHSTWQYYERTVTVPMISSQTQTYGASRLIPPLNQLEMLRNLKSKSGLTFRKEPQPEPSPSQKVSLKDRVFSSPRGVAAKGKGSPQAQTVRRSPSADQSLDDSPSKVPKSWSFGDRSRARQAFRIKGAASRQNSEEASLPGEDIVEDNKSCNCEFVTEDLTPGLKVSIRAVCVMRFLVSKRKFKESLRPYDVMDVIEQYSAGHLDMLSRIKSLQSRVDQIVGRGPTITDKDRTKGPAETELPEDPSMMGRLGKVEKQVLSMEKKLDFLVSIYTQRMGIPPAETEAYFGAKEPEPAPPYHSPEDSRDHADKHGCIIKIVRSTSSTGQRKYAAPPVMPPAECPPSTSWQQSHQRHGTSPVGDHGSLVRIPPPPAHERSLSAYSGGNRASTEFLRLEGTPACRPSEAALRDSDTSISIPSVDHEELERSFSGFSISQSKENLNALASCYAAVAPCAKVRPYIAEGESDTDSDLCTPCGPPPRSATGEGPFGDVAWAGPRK
KCNQ2 enhance baseline: recorded beside KCNQ2 enhance, whose call it bears; B-score; compound at 10 µM; measured here: initial fluorescence intensity artifact check;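 brightness before thallium and not channel activity; 0 = typical well and far values either way flag optical interference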
* = called active by the depositor. A portion of the library. The share of hits here may be higher or lower than overall.

For CSc1ccc(CN(C)C(=O)C(Cc2ccccc2)NC(=O)c2ccccc2)cc1 (configuration not stated) the results were KCNQ2 enhance -5.5.
For COc1ccc(OC)c(S(=O)(=O)N/N=C(/C)c2c[nH]c3ccccc23)c1 the results were KCNQ2 enhance 1 and KCNQ2 enhance baseline -0.35.
Screening C/C(=N/NS(=O)(=O)c1ccc(Cl)cc1)c1cccc(O)c1 returned KCNQ2 enhance 1.4 and KCNQ2 enhance baseline -0.27.
COC(=O)c1ccc2nc(NC(=O)CN3C(=O)CCC3=O)sc2c1 was read as KCNQ2 enhance 1.8 and KCNQ2 enhance baseline -0.13.
Cc1c(C(=O)CN2CCSCC2)c2ccccc2n1C was read as KCNQ2 enhance 0.36 and KCNQ2 enhance baseline -1.5.
`Cc1ccc(C(=O)O)cc1N=Cc1cc(Br)cc(Br)c1O` gave KCNQ2 enhance 10* and KCNQ2 enhance baseline 1.3*.
`C[C@H](NC(=O)[C@@H]1Cc2ccccc2CN1C(=O)OC(C)(C)C)C(=O)NCC1CCCO1` (some centres not stated) gave KCNQ2 enhance 0.33 and KCNQ2 enhance baseline -1.1.
`CC1CN(C(=O)c2cc3c(=O)n4ccccc4nc3s2)CC(C)O1` (configuration not stated) gave KCNQ2 enhance 1.4 and KCNQ2 enhance baseline -0.31.
For CN(C)C(=O)CN1CCN(c2nc3nonc3nc2N2CCCCC2)CC1 the results were KCNQ2 enhance 0.99 and KCNQ2 enhance baseline -0.26.
`Cc1cc(/C=N\NC(=O)CC(=O)NC2CCCCC2)c(C)n1-c1ccc(Cl)c(Cl)c1` gave KCNQ2 enhance 1.2 and KCNQ2 enhance baseline 0.46.
`Cc1cccc(CNc2ccc(C(CC(N)=O)NC(=O)c3cccc(Br)c3)cc2[N+](=O)[O-])c1` (configuration not stated) gave KCNQ2 enhance 1.1 and KCNQ2 enhance baseline 0.87.
`Cc1cc(C)nc(N/C(=N/S(=O)(=O)Cc2ccccc2)Nc2ccccc2)n1` gave KCNQ2 enhance 0.41 and KCNQ2 enhance baseline -0.37.
Screening Cc1c(F)cccc1NS(=O)(=O)c1ccccc1C#N returned KCNQ2 enhance 0.22 and KCNQ2 enhance baseline -0.53.
`C[N+]1=C2CCCCCN2C(O)(c2ccccc2)C1` (configuration not stated) gave KCNQ2 enhance 0.04 and KCNQ2 enhance baseline 0.41.
`O=C(COC(=O)[C@@H]1CCCN1S(=O)(=O)c1ccc(Cl)cc1)NC12CC3CC(CC(C3)C1)C2` gave KCNQ2 enhance 1.8 and KCNQ2 enhance baseline -0.23.

By substructure, the entries above containing a Cl atom.
Screening C/C(=N/NS(=O)(=O)c1ccc(Cl)cc1)c1cccc(O)c1 returned KCNQ2 enhance 1.4 and KCNQ2 enhance baseline -0.27.
`Cc1cc(/C=N\NC(=O)CC(=O)NC2CCCCC2)c(C)n1-c1ccc(Cl)c(Cl)c1` gave KCNQ2 enhance 1.2 and KCNQ2 enhance baseline 0.46.
`O=C(COC(=O)[C@@H]1CCCN1S(=O)(=O)c1ccc(Cl)cc1)NC12CC3CC(CC(C3)C1)C2` gave KCNQ2 enhance 1.8 and KCNQ2 enhance baseline -0.23.

(more compounds)
COc1ccc(C2CC(C(F)(F)F)n3nc(C(N)=O)c(Cl)c3N2)cc1OC (configuration not stated) was read as KCNQ2 enhance 0.91 and KCNQ2 enhance baseline 1.4.
For CC(C)(C)c1ccc(C(=O)CC(Sc2ccc(Cl)cc2)C(=O)O)cc1 (configuration not stated) the results were KCNQ2 enhance 4.2 and KCNQ2 enhance baseline -3.1.
Screening Cc1nc2c(C(=O)Nc3ccc(N4CCCC(O)C4)cc3)snc2c(=O)[nH]1 (configuration not stated) returned KCNQ2 enhance 0.07 and KCNQ2 enhance baseline 0.
For O=C(Nc1ccccc1)c1cccc(S(=O)(=O)Nc2ccccn2)c1 the results were KCNQ2 enhance 1.3 and KCNQ2 enhance baseline 0.01.
Cc1cc(CN(C)C(=O)CC2C(=O)NCCN2Cc2c(F)cccc2Cl)n[nH]1 (configuration not stated) was read as KCNQ2 enhance 1.8 and KCNQ2 enhance baseline -2.
CC1(C)CC(=O)C=C(Nc2ccccn2)C1 was read as KCNQ2 enhance 0.63 and KCNQ2 enhance baseline 0.7.
COc1ccc(N2C3=[N+](CC2(C)O)c2ccccc2CC3)cc1 (configuration not stated) was read as KCNQ2 enhance 0.31 and KCNQ2 enhance baseline 1.2.
For CCOC(=O)C(=O)N1CCN(c2ccccc2OC)CC1 the results were KCNQ2 enhance 1.3 and KCNQ2 enhance baseline 0.17.
Screening NS(=O)(=O)c1ccc(CNC(=O)CNC(=O)Cc2ccccc2)cc1 returned KCNQ2 enhance 1.2 and KCNQ2 enhance baseline 0.32.
Screening CCN1CCn2c3c(c4cccc(C)c42)CCCC31 (configuration not stated) returned KCNQ2 enhance 0.4 and KCNQ2 enhance baseline -1.5.
`O=C(CCC1CCCC1)N1CCN(C(=O)COc2ccccc2)CC1` gave KCNQ2 enhance 1.4 and KCNQ2 enhance baseline 0.75.
COc1cccc(/C=C(\C#N)c2nc3ccc(C)cc3[nH]2)c1OCC(=O)O was read as KCNQ2 enhance 0.01 and KCNQ2 enhance baseline 0.07.
COC(=O)CSc1nc(N)c(C#N)c(C(C)C)c1C#N was read as KCNQ2 enhance 0.51 and KCNQ2 enhance baseline -0.04.
For Oc1c(Br)cc(Br)cc1C=Nc1ccc2c(c1)OCCO2 the results were KCNQ2 enhance 2.9 and KCNQ2 enhance baseline 0.23.
Screening Cc1ccc(NC(=O)c2cnn(-c3ccccc3)c2C)c(C)c1 returned KCNQ2 enhance 0.19 and KCNQ2 enhance baseline 0.56.
For CC1(C)Cc2ccccc2-c2nnc(SCC(=O)Nc3nc4ccccc4s3)n21 the results were KCNQ2 enhance 1.4 and KCNQ2 enhance baseline -2.1.
Screening COc1ccc(CCNC(=O)CSc2nnc(-c3ccc(F)cc3)o2)cc1OC returned KCNQ2 enhance 0.36 and KCNQ2 enhance baseline 2.1.
For COc1ccc(OCC(=O)N/N=C(\C)c2ccc(-n3ccnc3)cc2)cc1 the results were KCNQ2 enhance 0.52 and KCNQ2 enhance baseline 0.39.
`Cc1cc(S(=O)(=O)NCCc2ccncc2)cc(C)c1F` gave KCNQ2 enhance 0.18 and KCNQ2 enhance baseline 1.
Screening NC(=O)SCC(=O)Nc1ccc(Cl)cc1 returned KCNQ2 enhance 6* and KCNQ2 enhance baseline 4.8*.
CN(C)S(=O)(=O)c1cccc(C(=O)OCC(=O)Nc2sccc2C(N)=O)c1 was read as KCNQ2 enhance 0.71 and KCNQ2 enhance baseline -1.5.
COC(=O)c1ccc2ccn(CC(=O)NC3CCCCC3)c2c1 was read as KCNQ2 enhance 2.6 and KCNQ2 enhance baseline -1.3.
`Oc1cc(Cc2ccccc2)cnc1CN1CCCCC1` gave KCNQ2 enhance 0.24 and KCNQ2 enhance baseline -0.71.
Screening COc1cccc(CN(C)C(=O)c2ccc(S(=O)(=O)N3CCCC3)cc2)c1OC returned KCNQ2 enhance 0.21 and KCNQ2 enhance baseline 0.25.
`Cc1nccn1-c1ccc(C(F)(F)F)cc1[N+](=O)[O-]` gave KCNQ2 enhance 0.27 and KCNQ2 enhance baseline -0.65.
`O=C(NN=C1CCCC1)c1n[nH]c2c1CCC2` gave KCNQ2 enhance 1.3 and KCNQ2 enhance baseline -0.27.
CCSc1nnc(NC(=O)Cc2cc(OC)c(OC)c(OC)c2)s1 was read as KCNQ2 enhance 0.48 and KCNQ2 enhance baseline 0.04.
Cc1cccc(NC(=O)N2CCC(NC(=O)c3ccccc3C)CC2)c1 was read as KCNQ2 enhance 0.16 and KCNQ2 enhance baseline -0.79.
Screening COc1cc2c(c(OC)c1OC)CCc1cnoc1-2 returned KCNQ2 enhance 0.93 and KCNQ2 enhance baseline 1.3.
Cc1ccc2c(CC(=O)N3CCN(S(=O)(=O)c4ccc5c(c4)OCCO5)CC3)coc2c1 was read as KCNQ2 enhance 1.2 and KCNQ2 enhance baseline 0.22.

Grouped by structure, the entries above containing a thiophene ring, fused or not (two)
`CC1CN(C(=O)c2cc3c(=O)n4ccccc4nc3s2)CC(C)O1` (configuration not stated) gave KCNQ2 enhance 1.4 and KCNQ2 enhance baseline -0.31.
CN(C)S(=O)(=O)c1cccc(C(=O)OCC(=O)Nc2sccc2C(N)=O)c1 was read as KCNQ2 enhance 0.71 and KCNQ2 enhance baseline -1.5.

Continued:
`O=C(Nc1cc(F)c(Br)cc1F)c1ccc(Cl)cc1` gave KCNQ2 enhance 0.52 and KCNQ2 enhance baseline -2.8.
COc1ccc(C(=O)C2CCCN(C(=O)c3ccoc3C)C2)cc1F (configuration not stated) was read as KCNQ2 enhance 1.5 and KCNQ2 enhance baseline -0.59.
Cc1cc(=S)[nH]c2ccccc12 was read as KCNQ2 enhance 1.1 and KCNQ2 enhance baseline -1.
`CCC(C)N(C(=O)COC(=O)/C=C/c1ccc(O)c(OC)c1)C1CCS(=O)(=O)C1` (configuration not stated) gave KCNQ2 enhance 1.6 and KCNQ2 enhance baseline -0.17.
`O=C(Nc1cccc(F)c1)N(Cc1ccc(Cl)cc1)CC(O)C(F)(F)F` (configuration not stated) gave KCNQ2 enhance 6.7* and KCNQ2 enhance baseline 2.6*.
For CC(=O)Nc1sc(N/N=C\c2cccc(Cl)c2)nc1-c1cccs1 the results were KCNQ2 enhance 1.2 and KCNQ2 enhance baseline 1.1.
Screening CCOc1ccc(S(=O)(=O)NCc2ccc3c(c2)OCO3)cc1C(=O)O returned KCNQ2 enhance 1.4 and KCNQ2 enhance baseline 0.22.
CC1(C)CC(=O)C(Sc2ccccc2C(=O)O)=C(O)C1 was read as KCNQ2 enhance 0.77 and KCNQ2 enhance baseline 0.48.
For COc1ccc(Nc2nc(-c3ccc(OC)cc3)c(CCC(=O)O)s2)cc1 the results were KCNQ2 enhance 0.08 and KCNQ2 enhance baseline 0.34.
`CCOC(=O)c1cc(NC(=O)Nc2ccccc2Cl)c(C)nc1C` gave KCNQ2 enhance 0.28 and KCNQ2 enhance baseline -0.25.
`O=C(COC(=O)c1cccc(Cl)c1)Nc1ccc2[nH]c(=O)[nH]c2c1` gave KCNQ2 enhance 1.2 and KCNQ2 enhance baseline 0.08.
COc1ccc(CS(=O)(=O)c2nc(C)cc(C)c2S(C)(=O)=O)cc1 was read as KCNQ2 enhance 0.85 and KCNQ2 enhance baseline -0.05.
Cc1ccc(NCc2nnc(SCC(=O)O)n2Cc2ccccc2)cc1Cl was read as KCNQ2 enhance 0.03 and KCNQ2 enhance baseline -0.98.
COc1ccccc1NC(=O)c1ccc([N+](=O)[O-])o1 was read as KCNQ2 enhance 1.6 and KCNQ2 enhance baseline -0.9.
Screening CC(C)N1CCN(C(=O)C2CCC(=O)N(CCc3cccc(F)c3)C2)CC1 (configuration not stated) returned KCNQ2 enhance 0.01 and KCNQ2 enhance baseline 0.08.

Quoted at random: 2 entries already listed.
COc1cccc(/C=C(\C#N)c2nc3ccc(C)cc3[nH]2)c1OCC(=O)O was read as KCNQ2 enhance 0.01 and KCNQ2 enhance baseline 0.07.
`O=C(COC(=O)[C@@H]1CCCN1S(=O)(=O)c1ccc(Cl)cc1)NC12CC3CC(CC(C3)C1)C2` gave KCNQ2 enhance 1.8 and KCNQ2 enhance baseline -0.23.

Going on with the list:
Nc1nc(N)c2ncc(C(=O)CCc3ccccc3)nc2n1 was read as KCNQ2 enhance 0.69 and KCNQ2 enhance baseline 0.94.
O=S(=O)(c1ccccc1)C1Cc2ccccc2C1Cl (configuration not stated) was read as KCNQ2 enhance 1.9 and KCNQ2 enhance baseline -0.68.
CN1CCN(C(=S)c2ccc(N(C)C)cc2)CC1 was read as KCNQ2 enhance 0.17 and KCNQ2 enhance baseline -0.69.
Cc1ccc(C=C2C(=O)c3ccccc3C2=O)s1 was read as KCNQ2 enhance 0.51 and KCNQ2 enhance baseline 0.65.
`Cc1cc(C(=O)COC(=O)c2ccncc2)c(C)n1CCc1ccc(F)cc1` gave KCNQ2 enhance 0.95 and KCNQ2 enhance baseline -0.07.
`COc1ccccc1N1CCN(C(CNS(C)(=O)=O)c2cccnc2)CC1` (configuration not stated) gave KCNQ2 enhance 0.04 and KCNQ2 enhance baseline 0.14.
For CC(C)OC(=O)CSc1nnc(-c2cnccn2)n1C the results were KCNQ2 enhance 0.71 and KCNQ2 enhance baseline -1.3.
`OCCCN=c1cc(-c2ccccc2)oc2ccc(Cl)cc12` gave KCNQ2 enhance 0.41 and KCNQ2 enhance baseline 1.
Cc1ccc2c(c1)C1CC(C)(O2)N(c2cccc(C(=O)NCc3ccccn3)c2)C(=O)N1 (configuration not stated) was read as KCNQ2 enhance 1.3 and KCNQ2 enhance baseline 0.33.
For Oc1ccc(-c2cn3c(n2)SCC3)cc1 the results were KCNQ2 enhance 0.36 and KCNQ2 enhance baseline -1.7.
Screening CC(C)(C)c1cc(=O)n2c(C#N)c(C#N)nc2[nH]1 returned KCNQ2 enhance 1 and KCNQ2 enhance baseline 0.
Screening CCCn1c(=O)[nH]c(=O)c2c1nc(-c1ccc(OC)c(Br)c1)n2CCOC returned KCNQ2 enhance 1.3 and KCNQ2 enhance baseline -0.09.
Screening COc1ccc(N(CC(=O)NCCC2=CCCCC2)S(=O)(=O)c2ccccc2)cc1OC returned KCNQ2 enhance 0.01 and KCNQ2 enhance baseline 2.9.
For CCOC(=O)C(NC(C)=O)C(OC(C)=O)c1cccc(N(CCO)CCO)c1 (configuration not stated) the results were KCNQ2 enhance 0.93 and KCNQ2 enhance baseline -0.02.
CCC(Oc1ccccc1)C(=O)Nc1nnc(C)s1 (configuration not stated) was read as KCNQ2 enhance 2.4 and KCNQ2 enhance baseline -1.1.
Screening COc1ccc(N2CCN(C(=O)C3=NNC(=O)CC3)CC2)cc1 returned KCNQ2 enhance 0.71 and KCNQ2 enhance baseline -1.1.
For COc1ccc(OCC(=O)N/N=C(\C)CC(=O)Nc2cccc([N+](=O)[O-])c2)cc1 the results were KCNQ2 enhance 0.41 and KCNQ2 enhance baseline -0.02.
For CC1(C)Cc2nc3sc4c(N(CCO)CCO)ncnc4c3cc2CO1 the results were KCNQ2 enhance 1.9 and KCNQ2 enhance baseline -0.04.

Bioassay records from PubChem BioAssay.
